Prx2 Sm inh – Schistosoma Mansoni Peroxiredoxins (Prx2); Schistosoma mansoni peroxiredoxin 2 (Prx2); S. mansoni Prx2 activity coupled to TGR/GSH (TGR is thioredoxin glutathione reductase), NADPH fluorescence loss, qHTS; some inactives read as strong as hits; Potency, µM; 65,000 tested, 0.07% active; AID 448, 2006; active means full or partial inhibition curve with a strong effect at the top dose; inconclusive means weaker partial or single-point curve; inactive means no accepted curve; also: series up to 57 µM; many of its hits are not listed in these tables
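Purified S. mansoni TGR and Prx2 in pH 7.4 phosphate buffer with EDTA and Tween-20 were preincubated with compounds for 15 min. Further NADPH/GSH was added, then a 2.5 mM H2O2 aliquot initiated turnover, followed kinetically by NADPH fluorescence.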
Anthrax LT inh – qHTS Assay for Anthrax Lethal Toxin Internalization; Cells, anthrax lethal toxin internalization, FRET ratio (460/530); Potency, µM (doses to about 40 µM), without a hit: top-dose activity change, negative = inhibition, most hits filed as inhibitors; 70,000 tested, 0.67% active; active = well fitted falling ratio curve with the 530 nm signal flat; inconclusive = other ratio curves, or a change in one channel alone; inactive = flat curves in the ratio and both channels; the % refers to the ratio; also: % is scaled to controls: 0 for no effect and ±100 for the full control effect; nearly all actives have a fitted effect of over 50% in size; tested in ME-180 cells; beta-lactamase reporter
An asterisk follows results filed as active; ? = inconclusive; / = no result given; & = joins results of further samples; [ ] = dose if it differs, or a comment. Potency is read from the fitted curve at half-maximal effect. The list is partial; count on the stated rates, not on these rows.

SMILES	Prx2 Sm inh	Anthrax LT inh
C=CCn1c(=O)c2ccccc2n2c(SCC(=O)Nc3cc(C)on3)nnc12	>57	0%
C=CCn1c(O)c(C(C)=Nc2ccc(N(C)C)cc2)c(=O)[nH]c1=O	>57	-8%
O=C(c1ccc(S(=O)(=O)N2CCCC2)cc1)N1CCN(Cc2ccc3c(c2)OCO3)CC1	>57	-5%
COc1ccc(CNc2nc3c(c(=O)n(Cc4ccc(F)cc4)c(=O)n3C)n2C)cc1	/	-11%
COC(=O)c1ccccc1NC(=O)N1CCN(S(=O)(=O)c2ccc(Cl)cc2)CC1	>57	-6%
Nn1c(SCC(=O)N2CCCCC2)nnc1-c1ccncc1	/	-15%
CCc1ccc(C=NC23CN4CN(CN(C4)C2)C3)s1	/	7%
COc1cccc([C@@H]2Oc3ccc(OC)cc3C(=O)[C@H]2O)c1	/	?
O=C(NCC1CCCO1)c1cccc(Br)c1 (stereo not given)	>57	-10%
Cc1ccc(-c2cnc(-c3ccncc3)o2)cc1	/	-10%
COc1cccc(Oc2c(C)oc3cc(OC(=O)N(C)C)ccc3c2=O)c1	/	?
CCOC(=O)C1CCN(Cc2nc(-c3ccc(OC)c(OC)c3)no2)CC1	>57	-1%
COC(=O)c1cc(=O)nc2sc(-c3cccs3)nn12	>57	-1%
Cc1n[nH]c2ccccc2c1=O	>57	4%[8 µM]
CCn1nc(C(=O)OCc2c(C)noc2C)c2ccccc2c1=O	>57	-2%
CCc1ccc2[nH]c(=O)c(CN(Cc3ccccc3OC)Cc3nnnn3Cc3ccco3)cc2c1	>57	?
CCCCCCn1c(SCC(C)C)nc2c1c(=O)[nH]c(=O)n2C	>57	-2%
Cc1cc(C)cc(NC(=O)CSc2nnc(Cn3c(=O)sc4ccccc43)n2C)c1	>57	-1%
O=C(c1cccs1)c1ccc(-c2cccs2)s1	>57	/
CC1Cc2ccccc2N1C(=O)CSc1nc2ccccc2n1CC(=O)N1CCOCC1 (stereo not given)	>57	?
COc1ccc2cc(CN(CCc3ccccc3)Cc3nnnn3Cc3ccco3)c(=O)[nH]c2c1	>57	-21%
CC(C)C(NS(=O)(=O)c1cccs1)C(=O)NCCN1CCN(c2ccccc2)CC1 (stereo not given)	>57	3%
COc1ccc(C2C(C(=O)N3CCOCC3)CCC(=O)N2c2cc(OC)c(OC)c(OC)c2)cc1 (stereo not given)	>57	4%
COc1cccc(-c2nn(C)c3sc(C(=O)NCc4ccccn4)cc23)c1	>57	-5%
O=C1C(Cl)=C(N2CCCCC2)C(=O)N1c1ccccc1	/	1%
COc1ccc(-c2ccc(SCC(=O)N3CCOCC3)nn2)cc1	>57	1%
COc1c(O)ccc2c1CN1CCc3cc4c(cc3[C@@H]1C2)OCO4	>57	?
CCCN1C(=O)C(NC(=O)c2ccncc2)(C(F)(F)F)C2=C1CC(C)(C)CC2=O (stereo not given)	>57	-10%
O=C(c1cccc(F)c1)N1CCC2(CC1)CCN(C(c1ccccc1)c1ccccc1)CC2	>57	?
CC(C)C(OC(=O)c1cccs1)C(=O)NCc1cccs1 (stereo not given)	>57	2%
Cc1ccc(OCc2ccc(C(=O)Nc3nccs3)o2)cc1	>57	?
Cn1nnnc1SCC(=O)NC1CCCCC1	>57	0%
CCOC(=O)c1ccc(NC(=O)CSc2nc3c(c(=O)n2-c2ccccc2OC)SCC3)cc1	>57	?
COc1cccc(C2C(C(=O)Nc3ccc(C)cc3C)=C(C)Nc3ncnn32)c1OC (stereo not given)	>57	?
O=C(c1scc2c1CCCC2)N1CCCCC1	>57	-14%
CSc1ccccc1NC(=O)c1ccncc1	>57	-2%
c1cn(CCCNc2ncnc3nc[nH]c23)cn1	>57	-8%
COc1cc(NC(=O)c2cccs2)ccc1NC(=O)c1ccco1	>57	?
CN(C)C(=O)NCc1ccc(S(N)(=O)=O)cc1	>57	1%
Cn1cnc2c1c(=O)n(Cc1ccc(F)cc1Cl)c(=O)n2C	>57	0%
COc1ccc(NC(=O)c2cc(-c3ccccc3OC)on2)cc1	>57	?
Cc1ccc(-c2nn3c(-c4ccco4)nnc3c3ccccc23)cc1S(=O)(=O)N1CCOCC1	>57	-3%
CCc1ccc(NC(=O)CSc2nnc(-c3cnccn3)n2Cc2ccco2)cc1	>57	-13%
N=C1[C@@H](O)[C@]2(I)c3ccccc3N3C(=N)[C@H](O)[C@@H]4c5ccccc5N1[C@@H]4[C@@H]32	>57	-6%[8 µM]
Cc1ccc(Nc2nc(N3CCOCC3)nc(N3CCOCC3)n2)cc1	/	-3%
Cc1ccc(C2N(c3cccc(Cl)c3)C(=O)C3CCCN32)o1 (stereo not given)	>57	4%
COc1ccc(-c2nn(-c3ccccc3)cc2CO)cc1OC	>57	?
CC(C)(C)OC(=O)N1CCCC1C(=O)N1CCc2ccccc21 (stereo not given)	>57	-12%
O=C(CN1CCN(Cc2ccc3c(c2)OCO3)CC1)N1CCc2[nH]c3ccc(F)cc3c2C1	>57	-15%
O=C1OCCC1Sc1nc2ccccc2n1-c1ccccc1 (stereo not given)	>57	11%
CCN(CC(=O)Nc1ccccc1OC)C(=O)C1CC2C=CC1C2 (stereo not given)	>57	-12%
O=C(O)CSc1nnc(CNc2ccccc2Cl)n1-c1ccccc1	>57	-22%
CCOC(=O)Cn1cnc2c(nnn2-c2ccc(OC)cc2)c1=O	>57	?
CCc1cccc(NC(=O)C2CCCC2)c1	>57	-9%
CN1CCc2c(sc(NC(=O)c3ccc(S(=O)(=O)N4CCOCC4)cc3)c2C(N)=O)C1	/	17%
CC(C)Cc1cc(C(=O)N2CCN(c3ccc(F)cc3)CC2)no1	>57	-12%
O=C(CC(Nc1ccccc1)C(=O)O)c1ccccc1 (stereo not given)	>57	-8%
COc1ccccc1-n1c(SCC(=O)N2CCCCC2)nc2cccnc21	>57	-9%
Cc1c(N=C2NC(=O)C(CC(=O)Nc3ccc(Cl)cc3)S2)c(=O)n(-c2ccccc2)n1C (stereo not given)	>57	12%
COc1cccc(C2CC(C(F)(F)F)n3ncc(C(=O)NCC4CCCO4)c3N2)c1 (stereo not given)	>57	2%

Looked up above.
In Prx2 Sm inh, `COc1cccc(C2CC(C(F)(F)F)n3ncc(C(=O)NCC4CCCO4)c3N2)c1` (stereo not given) reads >57
In Prx2 Sm inh, `COc1ccc(-c2nn(-c3ccccc3)cc2CO)cc1OC` reads >57

The list continues.
SMILES	Prx2 Sm inh	Anthrax LT inh
Cc1ccc(-c2nnc(SCC(=O)N3CCN(c4ccccc4)CC3)o2)cc1	>57	-14%
COc1ccc([C@@H]2CC(=O)c3c(O)cc(O)cc3O2)cc1O	>57&>57	7%
CCOC(=O)CN1C(=O)C(=O)c2cccc(C)c21	>57	-10%
COc1ccc(CNC(=O)C2C3C=CC4(CN(Cc5cccnc5)C(=O)C24)O3)cc1 (stereo not given)	>57	24%
Cc1c(N=Cc2nc3ccccc3n2C)c(=O)n(-c2ccccc2)n1C	/	7%
CCCCc1oc2ccccc2c1C(=O)c1cc(I)c(OCCN(CC)CC)c(I)c1	>57&>57	?
O=c1cc(-c2ccccc2Cl)c2c([nH]1)CCC2	>57	4%
CC1(C)S[C@@H]2[C@H](NC(=O)Cc3ccccc3)C(=O)N2[C@H]1C(=O)O	>57	-3%[3.58 µM]
CCCn1c(=NC(=O)c2ccco2)c(C(=O)OCC)cc2c(=O)n3ccccc3nc21	>57	?
CCc1cc2c(=O)[nH]cnc2s1	>57	-5%
CCCCNC(=O)C1C2C=CC3(CN(Cc4ccccc4Cl)C(=O)C13)O2 (stereo not given)	>57	-9%
O=C(C1CCN(Cc2cc(Cl)ccc2O)CC1)N1CCN(Cc2ccccc2)CC1	>57	-24%
Cc1ccc2oc(=O)cc(CN3CCC(C)CC3)c2c1	>57	/
CCCCSc1nc(C)c(CC(=O)OC)c(=O)[nH]1	>57	12%
BrCC(Br)(Br)Br	/	?
CCOc1cc(C(=O)Nc2cc(C)on2)cc(OCC)c1OCC	>57	/
Cn1c(=O)c2c(nc(CN3CCN(c4ccccc4)CC3)n2CCc2ccccc2)n(C)c1=O	>57	4%
CN(Cc1ccco1)C(=O)C1CCC(=O)N1Cc1ccc(F)cc1 (stereo not given)	>57	?
COc1cccc(-c2nnc(NC(=O)c3ccc(S(=O)(=O)N4CC(C)OC(C)C4)cc3)o2)c1 (stereo not given)	>57	3%
COc1ccc(OC)c(S(=O)(=O)N2C(C)CCCC2C)c1 (stereo not given)	>57	?
Cc1cc(C)n(CCOc2ccc(Cl)cc2Cl)n1	>57	-20%
COc1cc(C)c(Cl)c(C)c1S(=O)(=O)NCc1ccc2c(c1)OCO2	>57	3%
COc1ccc(N2CCN(C(=O)c3ccc(-n4nc(C)cc4C)cc3)CC2)cc1	>57	-9%
COc1cccc(-c2noc(CCC(=O)Nc3cccnc3)n2)c1	>57	13%
CN1CCN(c2nc3nonc3nc2N2CCN(C)CC2)CC1	>57	-13%
COc1cccc(C2CC(c3ccccc3Cl)n3ncnc3N2)c1 (stereo not given)	>57	0%
COc1cc(C2=NOC(C(=O)N3CCN(c4ccc(F)cc4)CC3)C2)cc(OC)c1OC (stereo not given)	>57	?
c1ccc(-c2noc(C3CCCCC3)n2)nc1	>57	-6%
COC(=O)c1ccccc1NC(=O)CN1CCC(n2nnc3cc(C)ccc32)CC1	>57	-6%
Cc1ccc(S(=O)(=O)C(C#N)c2nc3ccccc3nc2N2CC(C)OC(C)C2)cc1C (stereo not given)	>57	14%
CCOC(=O)N1CCN(C(=O)C2c3cc(OC)c(OC)cc3C(=O)N3CCc4ccccc4C23)CC1 (stereo not given)	>57	-6%
CC1(C)OC(C(O)(c2cc(F)c(F)c(F)c2)c2cc(F)c(F)c(F)c2)C(C(O)(c2cc(F)c(F)c(F)c2)c2cc(F)c(F)c(F)c2)O1 (stereo not given)	/	?
CCc1cccc(NC(=O)CCc2nc(-c3cccs3)no2)c1	>57	-17%
Cc1cccc2sc(NC(=O)CCNS(=O)(=O)c3cccc4nonc34)nc12	>57	-20%
CC(=O)N[C@@H](CC(=O)O)C(=O)O	>57	-5%[3.58 µM]
CC1SC(c2cccc(Cl)c2)NC1=O (stereo not given)	/	4%
Oc1ccccc1C1=Nc2ncnn2C(c2ccc(F)cc2)C1 (stereo not given)	/	-7%
CCOc1ccc(S(=O)(=O)N2CCN(c3ccc(C)cc3C)CC2)cc1	>57	?
CCCCC(=O)NCCc1cc2c(OC)ccc(OC)c2[nH]c1=O	>57	5%
CC1(C)OC(=O)C(=CNCC(=O)NCC(=O)O)C(=O)O1	>57	2%
COc1ccc(NC(=O)Cn2nnc(-c3ccccc3NC(=O)c3cccs3)n2)cc1	>57	-4%
O=C(O)NCC1CCCCC1 (tested in a mixture with another compound)	>57	?
Cc1csc(SCC(=O)Nc2ccc(Cl)cn2)n1	>57	-7%
CCNC(=O)CC1C(=O)N(c2cccc(OC)c2)C(=O)N1CCOC (stereo not given)	>57	-8%
COc1ccc(OC)c(S(=O)(=O)N2CCC(C(=O)Nc3cccc(C)c3C)CC2)c1	>57	5%
CSc1nccn1CC(=O)Nc1ccc(F)cc1	>57	3%
COC(=O)C/C=C\[C@@H](C)[C@@H]1C=C[C@H](OC(C)=O)[C@H](COC(C)=O)O1	/	-7%[8 µM]
CCP(=O)(c1ccccc1)C(C)(C)O (stereo not given)	>57	3%
CCOC(=O)c1ccc(OCC(=O)c2ccc(O)cc2O)cc1	>57	6%
O=C(CSc1nnc(-c2ccc(F)cc2)o1)N1CCN(C(=O)c2ccco2)CC1	>57	-10%
Cn1cnnc1Sc1nc2ccccc2nc1NS(=O)(=O)c1ccccc1	>57	1%
Cc1[nH]c2ccccc2c1C(=O)COC(=O)C1CCC(=O)N1 (stereo not given)	>57	?
CN(Cc1ccco1)c1ncnc2ccc(-c3cccnc3)cc12	>57	-2%
CO[C@@H](C)[C@](O)(C(=O)OC1=CCN2CC[C@H](O)[C@H]12)C(C)C	>57	-16%
Cc1ccc(N2CCN(CCc3nc4cc(NC(=O)c5ccco5)ccc4n3C)CC2)cc1	>57	-16%

By substructure: those above with an NH in an aromatic ring.
SMILES	Prx2 Sm inh	Anthrax LT inh
C=CCn1c(O)c(C(C)=Nc2ccc(N(C)C)cc2)c(=O)[nH]c1=O	>57	-8%
Cc1n[nH]c2ccccc2c1=O	>57	4%[8 µM]
CCc1ccc2[nH]c(=O)c(CN(Cc3ccccc3OC)Cc3nnnn3Cc3ccco3)cc2c1	>57	?
CCCCCCn1c(SCC(C)C)nc2c1c(=O)[nH]c(=O)n2C	>57	-2%
COc1ccc2cc(CN(CCc3ccccc3)Cc3nnnn3Cc3ccco3)c(=O)[nH]c2c1	>57	-21%
c1cn(CCCNc2ncnc3nc[nH]c23)cn1	>57	-8%
O=C(CN1CCN(Cc2ccc3c(c2)OCO3)CC1)N1CCc2[nH]c3ccc(F)cc3c2C1	>57	-15%
O=c1cc(-c2ccccc2Cl)c2c([nH]1)CCC2	>57	4%
CCc1cc2c(=O)[nH]cnc2s1	>57	-5%
CCCCSc1nc(C)c(CC(=O)OC)c(=O)[nH]1	>57	12%
CCCCC(=O)NCCc1cc2c(OC)ccc(OC)c2[nH]c1=O	>57	5%
Cc1[nH]c2ccccc2c1C(=O)COC(=O)C1CCC(=O)N1 (stereo not given)	>57	?

Screens deposited in PubChem by National Center for Advancing Translational Sciences (NCATS).
